# HPGD block – blocks human HPGD enzyme activity; P15428; purified HPGD, NADH fluorescence kinetic, PGE2 substrate; Potency, µM, inactives show at the highest dose activity change, negative = inhibition, most hits filed as inhibitors; 4.3% of 150,000 active; AID 894; active = well fitted inhibition curve with a large enough effect (not every such curve was filed as active); inconclusive = small, poorly fitted or top-dose-only effect, or another doubt; inactive = no such curve, though single readings can be large or run the other way;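 also: top concentration of the series not given in the record; plate controls included wells without enzyme; inactives centre near -10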
# Target sequence (P15428 whole entry, looked up): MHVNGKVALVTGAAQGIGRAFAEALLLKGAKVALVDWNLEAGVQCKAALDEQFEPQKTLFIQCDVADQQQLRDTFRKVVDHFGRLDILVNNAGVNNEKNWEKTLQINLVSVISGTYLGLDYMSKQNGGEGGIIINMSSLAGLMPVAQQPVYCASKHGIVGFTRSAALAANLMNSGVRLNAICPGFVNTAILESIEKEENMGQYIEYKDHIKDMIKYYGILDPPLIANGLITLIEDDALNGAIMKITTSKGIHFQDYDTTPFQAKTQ
#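 20 nM HPGD preincubated 15 min at room temperature with compound in 50 mM Tris-HCl pH 8, 0.01% Tween 20. Started with 1 mM NAD+ and 30 uM prostaglandin E2; NADH fluorescence (360/450 nm) read 5 times over 30-s intervals, last minus first.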
# The depositor's hits bear a star; ? = inconclusive; & = joins results of further samples. % is scaled to controls: 0 for no effect and ±100 for the full control effect; potency is read from the fitted curve at half-maximal effect.
SMILES,HPGD block
CN1C(=O)C(CC(=O)N2CCN(C(c3ccccc3)c3ccccc3)CC2)N(C)C1=O (configuration not stated),-2%
O=C(NNC1=C(C(=O)C(F)(F)F)CCC1)c1ccccc1Cl,14µM*
Cc1cc(S(=O)(=O)N(Cc2ccccn2)Cc2ccco2)ccc1-n1cnnn1,2%
CCOC(=O)c1c(C)c(-c2ccccc2)n(CC(=O)N2CCN(C)CC2)c1C,-2%
Cc1ccccc1Cn1c(=O)n(-c2ccccc2)c(=O)c2ccc(C(=O)NCc3ccco3)cc21,-10%
COCC(=O)N(Cc1cc2cc(OC)ccc2[nH]c1=O)c1ccc(C)cc1,-27%
COC(=O)c1ccc(NC(=O)C2CC(=O)N(c3ccc(C)cc3)C2)cc1 (configuration not stated),-9%
CCOC(=O)c1c(C)[nH]c(C(=O)CSc2nnc(-c3cccs3)n2Cc2ccccc2)c1C,-19%
CCn1nc(C)c(/C=N/NC(=S)Nc2ccc(Cl)cc2Cl)c1C,-11%
O=C(Cn1c(=O)c2c(ncn2C2CCCC2)n(Cc2ccccc2)c1=O)N1CCc2ccccc21,-16%
CC(C)C(=O)NC(=S)Nc1ccccc1F,-22%
COC(=O)CN(c1cccc(F)c1)S(C)(=O)=O,-15%
COc1ccc2[nH]c(=O)c(CN(C(=O)c3cccnc3)c3ccc(C)cc3)cc2c1,?
C/C(=N\NC(=O)COc1ccc(C(C)(C)C)cc1)c1ccc(-n2ccnc2)cc1,-20%
C=CCSc1nc(N(CC)CC)c2sccc2n1,-19%
c1ccc(Nc2nc(N3CCOCC3)c3ccccc3n2)cc1,?
CC(C)OP(=O)(OC(C)C)C1(O)C(=O)Nc2ccc(Br)cc21 (configuration not stated),-15%
CC(=O)Nc1ccc(C(=O)Nc2cc(C(F)(F)F)ccc2-n2cnc3ccccc32)cc1,14µM*
CCOc1ccc(N(CC(=O)NCC2CCCO2)C(=O)CCC(=O)Nc2ccccn2)cc1 (configuration not stated),4%
C/C(N)=C(/C#N)C(=O)CSc1nnnn1-c1ccc(C)cc1,-7%
O=C(c1cccc(S(=O)(=O)N2CCCC2)c1)N1CCN(c2ccccc2F)CC1,-2%
Cc1ccc(-c2csc(Cc3nc(-c4cc5ccccc5oc4=O)cs3)n2)cc1,?
COc1ccccc1NS(=O)(=O)c1cc(C(=O)NCCN2CCOCC2)ccc1Cl,-15%
O=C(CSc1nc2ccccc2s1)NNC(=S)Nc1ccc(Br)cc1,-11%
Brc1ccc2c(c1)OCCOCCOc1cc(Br)ccc1OCCOCCOCCO2,-11%
O=c1c2cccc3c2c(nn1CN1CCOCC1)-c1ccccc1-3,?
NNC(=O)CS(=O)(=O)Nc1ncccn1,-8%
CCC/C=C/C(C)O (configuration not stated),-4%
N#CCSc1nc2c(cc1C#N)CCCCCC2,-8%
C/C(=C\C(=O)c1cccnc1)Nc1ccc(C)c(C)c1,-26%
Cc1cc(C)n2c(Nc3ccc4c(c3)OCCO4)c(-c3ccco3)nc2n1,-10%
CCOc1cc(-n2cnnn2)c(OCC)cc1NC(=O)c1cnccn1,-6%
O=C(OCc1nnc(-c2ccccc2)o1)c1ccc(S(=O)(=O)NCc2ccco2)cc1,11µM*
Cc1ccc(NC(=O)c2ccccc2-c2ccccc2C(=O)O)cc1,-8%
CC1(C)C(=O)C2(CCCCC2)C(=O)OC1C(=O)c1ccccc1 (configuration not stated),-7%
COCCn1c(SCC(=O)Nc2sc(C)c(C)c2C#N)nnc1C(C)C,-3%
Cc1ccccc1Cn1c(=O)n(CCCC(=O)NCc2ccco2)c(=O)c2sccc21,-23%
Cc1ccc([N+](=O)[O-])cc1NC(=O)CN(C(=O)c1ccccc1Cl)C1CCCCC1,-8%
CN(C)c1ccc(N=Nc2ccccc2C(=O)OCC(=O)N2CCCC2)cc1,-12%
COc1ccccc1-n1cnc2cc(NCc3ccccn3)ccc21,-22%
COCCn1c(C(C)C)nc2sc3ccccc3c(=O)c2c1=O,-12%
CCCCOCC(O)Cn1c(C)nc2ccccc21 (configuration not stated),-5%
CCSc1nnc(-c2ccc(Cl)cc2)c2ccccc12,-16%
COc1ccc(C2CC(c3ccc(C)cc3)Nc3ncnn32)cc1 (configuration not stated),-12%
CC(=O)NC(c1ccc(F)cc1)c1cccnc1 (configuration not stated),-6%
COc1ccc(Br)cc1CN(C)CC(=O)Nc1cc([N+](=O)[O-])ccc1OC,-3%
CCOc1ccc(-n2c(C)nc3cc(C(=O)NCc4ccco4)ccc32)cc1,8.9µM*
Cc1sc(NC(=O)C2CCCO2)c(C#N)c1C (configuration not stated),-27%
CC(=O)Oc1ccccc1-c1nc(C)nc(N(C)C(C)=O)n1,-5%
Cc1oc2cc(O)ccc2c(=O)c1Oc1ccccc1Br,?
CCCCCCCCCCCCCCCC(=O)NCCc1ccc(O)c(O)c1,-5%&-5%
O=C(COC(=O)CNS(=O)(=O)c1cccc(Br)c1)Nc1ccccc1Sc1ccccc1,-11%
Cc1nc(N)sc1C(=O)Nc1ccccc1,1%
Cn1c(=O)n(C)c2cc(/C=N/NC(=S)NCc3ccccc3)ccc21,-26%
O=C(Nc1ccccc1)/C(=C\c1ccc2c(c1)OCO2)NC(=O)c1ccco1,-11%
Cc1ccc2[nH]c(=S)cc(C)c2c1,7.1µM*
COc1ccc2c(=O)c3c(=O)n(Cc4ccco4)c(C4CCCCC4)nc3oc2c1,-9%
O=C(NC1c2ccccc2-c2ccccc21)c1ccccc1,-2%
COC(=O)c1c(NC(=O)Cc2cccs2)sc2c1CCC(C)C2 (configuration not stated),13µM*
CCn1c(SC(C)C(=O)OC)nnc1-c1c[nH]c2ccccc12 (configuration not stated),-15%

# New compounds follow:
SMILES,HPGD block
COc1ccc(OC)c(S(=O)(=O)NCCc2ccccc2)c1,-7%
Cc1ccc(-c2[nH]c(-c3ccc(Cl)cc3)nc2SCC(=O)NCC2CCCO2)cc1 (configuration not stated),?
Cc1ccc(C(c2c(O)nc3n(c2=O)CCS3)c2c(O)nc3n(c2=O)CCS3)cc1,-16%
CCCn1c(CNc2ccc(Br)cc2)nc2ccccc21,-15%
Cc1c(NC(=O)c2ccc(CN3CCc4ccccc4C3)cc2)c(=O)n(-c2ccccc2)n1C,-6%
CCn1c(SCC(=O)Nc2ccccc2C(=O)OC)nnc1-c1ccoc1C,-4%
CC(C)CC(C(=O)Nc1oc(-c2ccco2)c(-c2ccco2)c1C#N)N1C(=O)c2ccccc2C1=O (configuration not stated),-29%
O=C(Nc1ccc(Cl)cc1)N1CCCC1,-1%
Cc1ccc(C(=O)O/N=C(\N)c2ccc(Br)cc2)cc1C,2%
COc1ccc(Oc2nnc(C)c3ccccc23)cc1,-2%
CCN(CC)C(=O)c1ccc(C(=O)c2ccccc2)cc1,1µM*
Cc1onc(-c2ccccc2)c1C(=O)OCC(=O)c1ccccc1,-10%
CC(NC(=O)NCCCC(=O)O)(C(F)(F)F)C(F)(F)F,-11%
C=CCNC(=O)C(=O)NCCOc1ccccc1Cl,-18%
CC(=O)Nc1cccc(NC(=O)CCc2ccccc2)c1,0%
CCCCN1C(=O)CC(Sc2ccccc2C(=O)O)C1=O (configuration not stated),2%
COc1cccc(C2C(C#N)=C(N)Oc3c2oc(CO)cc3=O)c1OC (configuration not stated),-4%
COc1cc(OC)cc(C(=O)NCC(=O)N2CCC(C)CC2)c1,-18%
N#CCCn1c(C(C#N)(CCC#N)CCC#N)nc2ccccc21,-6%
COc1ccc(CN(C(=S)Nc2ccccc2)C2CC(=O)N(c3ccccc3)C2=O)cc1 (configuration not stated),-8%
CCOC(=O)C1CCN(Cc2c(O)ccc3ccccc23)CC1,-17%
CCC(c1nnnn1CCOC)N(Cc1ccc(C)cc1)Cc1cc2cc(OC)ccc2[nH]c1=O (configuration not stated),?
CCOCCCn1c(C)nc2c(c1=O)c1nc3ccccc3nc1n2-c1ccc(C)cc1,-16%
CC(=O)C=NCC(=O)O,-4%
CN(C)S(=O)(=O)N1CCN(c2cccc(Cl)c2)CC1,-8%
CCN(CC)c1ccc(C=C(c2nnnn2-c2ccccc2)c2nnnn2-c2ccccc2)cc1,-18%
Cc1ccc(-c2nnn(CC(=O)Nc3cccc4cccnc34)n2)o1,-28%
Cc1ccc(S(=O)(=O)N2CCCC2C(=O)Nc2cc(C)on2)cc1 (configuration not stated),-3%
CC(C)(C)C1CCc2c(C(=O)N/N=C/c3cccs3)csc2C1 (configuration not stated),-21%
CC(C)Cc1cc(C(=O)NCCN2CCOCC2)no1,-3%
O=C(Nc1ccccc1Cl)c1cccs1,-16%
Cc1nc2oc(C(=O)c3ccccc3)c(N)c2c2c1COC(C)(C)C2,-12%
O=C(c1cc2cc(Br)cc(Br)c2oc1=O)N1CCCC1,28µM*
COc1ccc(NC(=O)OC(CN2CCCCC2)C(F)(F)F)cc1 (configuration not stated),-14%
S=c1nc[nH]c2c1ncn2Cc1ccco1,-18%
O=C(C[n+]1ccsc1)c1ccccc1,-6%
CC(C)(C)c1ccc(-c2nnc(SCCC#N)n2C2CCCC2)cc1,-10%
O=C(c1cccc(S(=O)(=O)N2CCOCC2)c1)N1CCOCC1,-2%
C#CCN1C(=O)S/C(=C/C=C/c2ccc(N(C)C)cc2)C1=O,?
COC(=O)c1cc2c(C)cc3ccc(C)cn3c-2c1C(=O)OC,-20%
Cn1c(Cc2cccs2)nnc1SCC(=O)N1CCc2ccccc21,-9%
CCOc1ccc(C(C)NC(=O)CCC(=O)O)cc1 (configuration not stated),-3%
CC(=O)c1ccc(-c2nc3c4ccccc4ccn3c2C(C)=O)o1,-24%
Cn1c(O)c(N=N/C(=N/c2ccccn2)c2ccccn2)c2cc(Br)ccc21,22µM*
CCCOc1ccc(C(=O)NCC(c2cccs2)N(C)C)cc1 (configuration not stated),-19%
COc1cccc2cc(C(=O)N3CCN(c4ccccc4F)CC3)c(=O)oc12,-17%
Cc1cc(NS(=O)(=O)c2ccc(C3CCCCC3)cc2)no1,-16%
O=[N+]([O-])c1ccc(Cl)c(/C=N/N2CCN(Cc3ccc(Cl)cc3)CC2)c1,-17%
CC(C)Cn1cnc2c1c(=O)n(CC(O)c1ccccc1)c(=O)n2CC(C)C (configuration not stated),-6%
Cc1ccc(S(=O)(=O)N/N=C\c2ccc(C)o2)cc1,-7%
COc1cccc(/C(O)=C/c2nc3ccc(C(=O)NCCc4cccc(C)c4)cc3[nH]c2=O)c1,-13%
CCCN1C(=O)C(NS(=O)(=O)c2ccc(N)cc2)(C(F)(F)F)C(C(=O)OC)=C1C (configuration not stated),-8%
CSC1=C(C#N)C(c2ccc3c(c2)OCO3)C2=C(CCCC2=O)N1 (configuration not stated),16µM*
COc1cccc(C(=O)NCCSc2ccc(C)cc2)c1,?
C=CCc1cccc2cc(C(=O)NC3=C(C#N)CCC3)c(=O)oc12,-10%
N#C/C(=C\c1cccc(OC(=O)c2cccs2)c1)C(N)=O,25µM*
O=c1c2ccccc2c(C=NCCCN2CCOCC2)c(O)n1Cc1ccccc1,-27%
Cc1ccc(C2C(C#N)C(C#N)N3CCCN23)cc1 (configuration not stated),-22%
COc1ccc(C)cc1NC(=O)Nc1ccc(Br)cn1,3%
Cc1ccc(S(=O)(=O)c2ccc(Oc3ccccc3)cc2)cc1,-16%

# Continuation.
SMILES,HPGD block
N#Cc1nc(COc2ccccc2)oc1N1CCCCC1,?
CCN(CC)CCNC(=O)c1cn(C)c2ccc(S(=O)(=O)N(C)C3CCCCC3)cc2c1=O,-2%
COc1ccc(CN(C(=O)Cn2nnc3ccccc32)C(C(=O)NC(C)(C)C)c2ccco2)cc1 (configuration not stated),-7%
O=[N+]([O-])c1cc(S(=O)(=O)Nc2ccccc2)ccc1N1CCN(c2ccccc2)CC1,-19%
OCCNc1nc(NCCC2=CCCCC2)nc(N2CCOCC2)n1,-14%
O=C(O)c1ccccc1Nc1ccccc1C(=O)O,-11%
CC1=C(C(=O)OCC2CCCO2)C(c2ccncc2)C2=C(CC(C)(C)CC2=O)N1 (configuration not stated),?
COc1cccc(/C(O)=C/c2nc3ccc(C(=O)NCCc4ccc(Cl)cc4)cc3[nH]c2=O)c1,-17%
COc1cccc(CNC(=O)c2cccc(Br)c2)c1,?
CCOC(=O)Nc1ccc(C(N)=O)cc1,-3%
O=C(COC(=O)c1cccc([N+](=O)[O-])c1)c1ccc(OCc2ccccc2)cc1,-9%
Cc1ccc(Oc2ccc(/C=N/O)cn2)cc1,-9%
Cn1c(=O)n(CCOc2ccc(Cl)cc2Cl)c2ccccc21,-12%

# High-throughput results deposited in PubChem BioAssay by National Center for Advancing Translational Sciences (NCATS).

# Some of the compounds tested; the hit share may differ from the screen's.
